# Calb biofilm kill: mixture kills Candida albicans biofilm cells; 0.02% of 120,000 active; C. albicans biofilm persisters + clotrimazole, fluorescence viability; primary screen in compound mixtures of four per well; AID 1242; inhibition, % at 7.6 µM;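 active = inhibition above 30.3% in the primary screen of four-compound pools, then above 30% when the compound was retested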;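 also: compounds exposed to preformed 24 h biofilms for 48 h; the number belongs to the whole pool; some results filed as inactive read as strong as hits; inactives centre near 12; 0% = biofilm with clotrimazole alone and 100% = kill control; retested singly at about 60 µM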
#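 System: C. albicans CAF4-2 wild-type biofilms; Medium: RPMI/MOPS medium, pH 7.0; Reagent: Clotrimazole, 50 µg/mL; Times: biofilm formation 24 h, compound exposure 48 h, 37 °C; Detection: 2-h Alamar Blue fluorescence, 535/590 nm excitation/emission; Evaluation: percent inhibition of biofilm viability.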
# Active calls of the source: *.
SMILES	Calb biofilm kill
CN1CCN(C(=O)/C(=C/c2cccs2)NC(=O)c2ccco2)CC1	27
Cc1ccc(C(=O)NCCCc2ccccc2)c(C)c1	5
COc1ccc(C)cc1N/C(N)=N/c1nc(C)cc(C)n1	4
CN(C)c1ccc(-c2nc3ccccc3c(=O)[nH]2)cc1	26
Cc1ccc(/C=N/NC(=O)CCCOc2ccc(Cl)cc2Cl)cc1	18
COCCn1c(C)cc(/C=C2/SC(=O)N(C(C)C(=O)OC)C2=O)c1C (stereo unspecified)	26
CCOc1ccccc1/C=N/NC(=O)CNC(=O)COc1ccccc1	7
Cc1ccc(/C=C/C(=O)NC(=S)N2CCN(C)CC2)cc1	19
CCOC(=O)/C(=C/c1ccc(Cl)cc1)NC(=O)c1ccco1	10
CC(C)(C)[C@H]1C=C(C(N)=O)O[C@@H](OCc2ccc(CO)cc2)C1	19
O=c1oc2ccccc2c(NC(c2ccccc2)c2ccccc2)c1[N+](=O)[O-]	17
COc1cc(C2Oc3ccccc3C=C2[N+](=O)[O-])cc(OC)c1OC (stereo unspecified)	13
Cc1nc(N2CCC(C)CC2)c2nnn(Cc3ccccc3)c2n1	-2
COc1ccc(C2=NOC3(CC(=O)N(c4ccc(F)cc4)C3=O)C2)cc1 (stereo unspecified)	17
CCOc1ccccc1C(=O)N[C@H](C(=O)OCc1cc(=O)oc2cc(C)ccc12)C(C)C	16
Cc1ccsc1/C=N/NC(=O)c1ccccn1	11
CCc1cccc(CC)c1NC(=S)NCc1nc2ccccc2[nH]1	15
CCn1c(C)[n+](Cc2ccccc2)c2ccc(C(=O)OC)cc21	18
Cc1cc(Br)c(OCc2ccc(C(=O)N/N=C3\CC(=O)CC(C)(C)C3)cc2)c(Br)c1	25
CC(C)Cc1nnc(NC(=O)CCC(=O)Nc2ccc3cn[nH]c3c2)s1	25
Cc1sc(NC(=O)c2ccco2)c(C(c2ccccc2)N2CCC(C)CC2)c1C (stereo unspecified)	2
CCCCCCn1nc(C(=O)OCC(=O)c2c(N)n(C)c(=O)n(C)c2=O)c2ccccc2c1=O	3
O=C(c1cccc(N2C(=O)c3ccccc3C2=O)c1)N1CCCCCC1	26
Cc1cccnc1NC(=O)c1ccccc1NC(=O)C(C)(C)C	11
CC(C)N(Cc1cnn(C)c1)Cc1nc(-c2ccc(Cl)cc2)no1	28
Cc1cc(C)cc(NC(N)=S)c1	15
CCN1CCN(C(=S)Nc2ccc3nc4n(c(=O)c3c2)CCCCC4)CC1	19
O=C(O)CC(NC(=O)C1CCCCC1)c1ccc(OC2CCCC2)cc1 (stereo unspecified)	9
CCOC(=O)c1csc(NC(=O)CC2CCCC2)n1	12
CC1(C)N([O-])c2cc([N+](=O)[O-])ccc2[N+]1=O	15

# Three entries from above, arranged by SMILES length, smallest number first.
SMILES	Calb biofilm kill
CCOC(=O)c1csc(NC(=O)CC2CCCC2)n1	12
CCn1c(C)[n+](Cc2ccccc2)c2ccc(C(=O)OC)cc21	18
CC(C)Cc1nnc(NC(=O)CCC(=O)Nc2ccc3cn[nH]c3c2)s1	25

# The list goes on:
SMILES	Calb biofilm kill
CCCCCCCNc1cccc(C)c1	17
COc1ccc(S(=O)(=O)N2CCCCC2)cc1NC(=O)c1ccc2c(c1)OCO2	14
O=C(Nc1ccc2c(c1)OCO2)N1CCN(c2ccccc2)CC1	16
CN(CC(=O)Nc1ccccn1)S(=O)(=O)c1ccc(Cl)cc1	11
CCc1ccc2[nH]c(C(=O)Nc3ccc4c(c3)OCO4)cc2c1	13
CCN(CC)S(=O)(=O)c1ccc(N/N=C/c2ccc(O)cc2)nc1	17
CC(C(=O)Nc1ccccc1Br)c1ccc([N+](=O)[O-])cc1 (stereo unspecified)	26
COc1ccccc1CNC(=O)c1cc(=O)c2ccccc2o1	4
CCOC(=O)C(=CNc1ccc(C(F)(F)F)cc1)C(=O)OCC	17
COc1ccc(/C=N/NC(=O)Cc2cccs2)cc1	13
O=C(CN1CCN(c2ccccc2)CC1)Nc1ccccc1Sc1ccccc1	10
O=[N+]([O-])c1ccc(Sc2cc[n+]([O-])c3ccccc23)c([N+](=O)[O-])c1	33
NC(=S)Nc1ccc2cn[nH]c2c1	14
COc1ccc(Cn2nnnc2C(c2ccc(N(C)C)cc2)N2CCC(C(N)=O)CC2)cc1 (stereo unspecified)	1
CCCNC(=O)OC[C@H]1O[C@H](CCO/N=C(\C)CCN2CCc3nc(-c4ccccc4)c(-c4ccccc4)cc3C2)C=C[C@@H]1Oc1ccc(OC)cc1	14
CCN1CCN(c2nc(Nc3ccc(NC(C)=O)cc3)nc(Nc3ccc(NC(C)=O)cc3)n2)CC1	15
COc1ccc(C(=O)NCc2csc(-c3cccs3)n2)cc1	24
O=C(CSc1ccc(-c2cccc([N+](=O)[O-])c2)nn1)N1CCCCC1	12
Cc1ccc(C(=O)N2CCN(c3ccc(NC(=O)COc4ccccc4C)cc3)CC2)cc1	6
Cc1ccc(/C(N)=N/OC(=O)CCC2CCCC2)cc1	8
Cn1cnc([N+](=O)[O-])c1SCC(O)CCl (stereo unspecified)	20
CN(c1ncc(C(F)(F)F)cc1Cl)N1C(=O)c2cccc([N+](=O)[O-])c2C1=O	8
COc1ccc(C(C[N+](=O)[O-])c2c(C)[nH]c3ccccc23)cc1OC (stereo unspecified)	8
Cc1ccc(S(=O)(=O)N(C)C)cc1-n1c(SCC(=O)Nc2ccc(F)c(F)c2F)nc2ccccc2c1=O	23
CN(C)C(=S)Nc1ccc2ccccc2c1	17
CCN(c1ccc(NC(=O)COC(=O)/C=C/c2cccs2)cc1)C(C)C	16
O=C(Nc1cccc(NC(=O)c2cccs2)c1)c1cccnc1	11
Cc1ccc(Cl)cc1NC(=O)c1ccc(NC(=O)CCC(=O)O)cc1	7
CCOC(=O)CC1=NN(c2ccccc2)C(=O)/C1=C\c1ccc(N(C)C)cc1	8
O=C(C1CC1)N1CCCC(c2ccc(Cl)cc2)=N1	18
Cc1cccc(Cc2nnc(CCC(=O)NCc3cn4ccccc4n3)o2)c1	16
Cc1cccc(CSc2ccc3nnc(-c4cccnc4)n3n2)c1	-1
COc1ccc(N(CC(=O)Nc2c(C)n(C)n(-c3ccccc3)c2=O)S(=O)(=O)c2ccc(C)cc2)cc1	19
COc1ccc(OC)c(NC(=O)c2nc3ccccc3s2)c1	3
COc1cc(/C=N/Nc2ncc(C(F)(F)F)cc2Cl)cc(OC)c1OC	20
CCOc1ccc(N(CC(=O)N/N=C/c2cccnc2)S(C)(=O)=O)cc1	12
CCCCSc1nnc(CSc2ncccn2)n1C	9
COC(=O)c1ccccc1COn1c(=O)c[n+]([O-])c2ccccc21	8
CCc1ccc(Nc2nc3ccccc3c(=O)s2)cc1	7
Cc1ccc(/C=C/C(=O)OC(C)C(=O)Nc2ccc(Cl)cn2)o1 (stereo unspecified)	15
CC[C@H](C)[C@H](NC(N)=O)C(=O)NCCc1ccc(Cl)cc1Cl	9
COc1cccc(N(C(=O)Cn2nnc(-c3ccc(F)cc3)n2)C(C(=O)NCC2CCCO2)c2ccc(Cl)cc2)c1 (stereo unspecified)	26
CCOC(=O)Cc1csc(NC(=O)CSc2nc(-c3ccccc3)c(C#N)c(=O)[nH]2)n1	18
C=CCN1C=C2C(=O)C(C)(OC(=O)c3cccs3)C(=O)C=C2C=C1CCCC(=O)OC (stereo unspecified)	-1
C=CCOc1ccc(/C=C/C(=O)Nc2ccc(C(=O)NC)cc2)cc1	11
Cc1ccccc1Nc1c(-c2ccccn2)nc2ccccn12	3
COc1ccc(C2CC(c3ccccc3OC(C)=O)=NN2C(=O)/C=C/c2ccccc2)cc1OC (stereo unspecified)	1
O=C(CSC1=NCCS1)Nc1nc2ccccc2s1	6
CCOc1ccc(OCc2cccc(C(=O)N(CC)CC)c2)cc1	18
Cn1c(-c2ccccc2)cnc1NCc1cc2c(cc1[N+](=O)[O-])OCO2	19
Clc1cccc(Cc2nn[nH]n2)c1	12
c1ccc(CC(Nc2ccccn2)c2ccccc2)cc1 (stereo unspecified)	2
Cc1ccc2cc(C#N)c(SCC(=O)NNC(=O)Cc3ccccc3)nc2c1	-8
COc1cc(CCN2C(=O)c3cccc4cccc(c34)C2=O)c(S(=O)(=O)N2CCC(C)CC2)cc1OC	16
CC(C)COP(=O)(OCC(C)C)C(Nc1ccccc1)c1ccccc1 (stereo unspecified)	9
COCCNC(=O)Cn1nc(C)c([N+](=O)[O-])c1C	15
Cc1cc2ccccn2c1C(=O)c1ccc([N+](=O)[O-])o1	18
COc1cc2c(cc1NC(=O)/C=C/c1ccc([N+](=O)[O-])cc1)oc1ccccc12	14
Cc1nn(CC(=O)Nc2cccnc2)c(=O)c2ccccc12	10
N=C(N)n1c(N)nc2ccccc2c1=O	9

# Two entries drawn at random from those above:
SMILES	Calb biofilm kill
CC(C)COP(=O)(OCC(C)C)C(Nc1ccccc1)c1ccccc1 (stereo unspecified)	9
Cc1nn(CC(=O)Nc2cccnc2)c(=O)c2ccccc12	10

# Continuation.
SMILES	Calb biofilm kill
O=C(CCS(=O)(=O)CCN1CCOCC1)NCNC(=O)CCS(=O)(=O)CCN1CCOCC1	-3
Cn1cnc2c1c(=O)[nH]c(=O)n2C	18
Cc1nc2ccccc2nc1N/N=C/c1ccc(O)cc1	6
Cc1cc(C)n2c(nc3ccccc32)c1C(=O)NCc1ccccc1	0
CCc1c(C)sc(NC(=O)c2noc(C)c2[N+](=O)[O-])c1C#N	17
Cc1cc(-n2c(C)cc(C(=O)CCl)c2C)no1	15
CC(C)CN1CCC(C(=O)NCC2CCCO2)CC1 (stereo unspecified)	8
CN(C)[C@@H](CO)c1nnc([C@H](Cc2ccc(O)cc2)NC(=O)C2CCNCC2)o1	18
N#Cc1c(NC(=O)CCCl)sc2c1CCCCC2	15
CC(=O)c1cccc(NC(=O)N2C3CCC2CC(NC(=O)Nc2ccccc2)C3)c1 (stereo unspecified)	15
N#Cc1c(/N=C/c2ccccc2)oc(-c2ccccc2)c1-c1ccccc1	11
Cc1ccccc1NC(=O)CN1C(=O)N/C(=C\c2cccn2-c2cccc(C(=O)O)c2)C1=O	10
COc1ccc(Cc2nnc(N)s2)cc1OC	9
CCOc1ccc(Br)cc1C(=O)Nc1ccc(C(=O)NCC(C)C)cc1	10
CCCCOc1ccc(Cc2c(Cl)nc(SC)nc2N2CCOCC2)cc1	16
O=C1C2CCCN2C(=O)N1CCCN1CCN(c2cccc(Cl)c2)CC1 (stereo unspecified)	4
COc1ccc(C(=O)NN)cc1	16
O=C(COCC(=O)N1CCOCC1)N1CCOCC1	4
Cc1cccc(Oc2nc3ccccn3c(=O)c2/C=C(\C#N)C(=O)NC2CCS(=O)(=O)C2)c1 (stereo unspecified)	-7
COc1cc(/C=C2/C(=O)CNC2=O)ccc1O	10
Cc1onc(-c2ccccc2)c1C(=O)N/N=C/c1ccco1	10
CCn1c(=O)cc(N2CCN(C(=O)c3ccco3)CC2)[nH]c1=O	15
COc1ccc(Cc2n[nH]c(=S)n(N)c2=O)cc1	12
CC(C)Cn1c(N)c(-c2nc(C(C)C)c(C(=O)c3ccccc3F)s2)c(=O)n(C)c1=O	8
Cc1cccc(N2CCN(C(=S)c3ccc(-c4ccccc4[N+](=O)[O-])o3)CC2)c1	9
CN(Cc1ccccc1)C(=O)COC(=O)c1ccc(Cl)c(N)c1	23
CCOC(=O)CNC(=O)C12CC3CC(C1)CC(c1ccc(C)cc1)(C3)C2	5
O=C(CSc1nnc(-c2ccccc2F)n1C1CC1)Nc1cccnc1Cl	3
Cc1ccc(S(=O)(=O)NNC(=O)CCCCC(=O)NNS(=O)(=O)c2ccc(C)cc2)cc1	12
O=C(CNC(=O)c1ccc2c(c1)OCO2)N/N=C/c1cccc([N+](=O)[O-])c1	6
O=C(NNC(=S)NC(=O)c1ccco1)c1ccc(NC(=O)c2ccccc2)cc1	28
Cc1ccccc1NC(=O)c1ccc(NS(=O)(=O)c2cc(C(C)(C)C)cc(C)c2C)cc1	22
CC(C)CCNC(=O)C1(c2cccs2)CCOCC1	-10
CC1(OC(=O)CCc2ccccc2)C(=O)C=C2C=C(c3ccc(C#N)cc3)N(CCc3ccccn3)C=C2C1=O (stereo unspecified)	13
Cc1cc(N2CCOCC2)ccc1/C=C1\NC(=O)N(CC(=O)Nc2ccc(F)cc2)C1=O	15
COc1cc(/C=C(\C#N)C(=O)NCC2CCCO2)ccc1OC(C)C (stereo unspecified)	6
N#CCSc1nnc(-c2ccc(F)cc2)n1N	10
O=C(/C=C/c1ccccc1)Nc1ccc(Cl)cn1	12
CCOC(=O)C(NC(C)=O)C(=O)Nc1c(C)cccc1C (stereo unspecified)	5
CC1CCC(NC(=O)C2CCN(S(=O)(=O)c3ccc4nc5c(c(C(=O)O)c4c3)CC(C)CC5)CC2)CC1 (stereo unspecified)	-7
CCSC1=N/C(=C\c2ccc(C)s2)C(=O)S1	16
N#CCC(=O)Nc1ccc(C(=O)OCC(=O)Nc2cccc(C(F)(F)F)c2)cc1	2
N=c1n(CCN2CCCCC2)c2ccccc2n1CC(O)c1ccco1 (stereo unspecified)	24
Cc1ccc(S(=O)(=O)N2CCN(c3ccc([N+](=O)[O-])c(Sc4nncn4C)c3)CC2)cc1	21
CC1Cc2ccccc2N1C(=O)CSc1nnc(C2CC2)n1C (stereo unspecified)	10

# The list is partial; rates above refer to the full screens.
